CDC25B-CDK2 inh: human CDC25B-CDK2/CyclinA binding inhibition. P30305+P24941. HTRF CDC25B-CDK2/CyclinA binding, anti-His/anti-Flag; hits give high values. z-score (test concentration not listed). hit rate 0.72% among 94,000. AID 1259370;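 further: score is relative to mean and SD of negative controls; strong numbers were not always called active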
HIV TAR-Tat: HIV-1 TAR-Tat binding disruption. HIV-1 TAR RNA, Tat peptide displacement FRET; hits give high values. z-score (concentration not given with the values). hit rate 0.6% among 100,000;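 further: score is relative to mean and SD of negative controls; some compounds called inactive have numbers as strong as hits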
* marks the source's active call; other numbers are inactive results; x = no result given; & = joins results of further samples.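 How the source made its calls: active means z-score from 3 up in half or more of its runs; inactive means the rest.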

The first 5 compounds, to show the layout:
SMILES | CDC25B-CDK2 inh | HIV TAR-Tat
O=C(Nc1ccc(F)cc1F)C1COc2ccccc2C1 (configuration not stated) | x | 0.71
CCn1c(C(=O)N2CCC(C(=O)NCCCN3CCOCC3)CC2)cc2sccc21 | -0.09 | -0.29
O=C1SC(Nc2cccc(Br)c2)C(=O)N1c1ccccc1 (configuration not stated) | 0.03 | 2.24
COc1ccc(NC(=O)Cn2cnc([N+](=O)[O-])n2)c(OC)c1 | 0.19 | 0.3
CCOC(=O)CSc1nc2ccccc2c2nc(CCn3c(C)nc4ccccc43)nn12 | x | 0.95

All compounds of this part, from the start:
SMILES | CDC25B-CDK2 inh | HIV TAR-Tat
O=C(Nc1ccc(F)cc1F)C1COc2ccccc2C1 (configuration not stated) | x | 0.71
CCn1c(C(=O)N2CCC(C(=O)NCCCN3CCOCC3)CC2)cc2sccc21 | -0.09 | -0.29
O=C1SC(Nc2cccc(Br)c2)C(=O)N1c1ccccc1 (configuration not stated) | 0.03 | 2.24
COc1ccc(NC(=O)Cn2cnc([N+](=O)[O-])n2)c(OC)c1 | 0.19 | 0.3
CCOC(=O)CSc1nc2ccccc2c2nc(CCn3c(C)nc4ccccc43)nn12 | x | 0.95
CN(C(=O)Cn1ncc2c([nH]c3ccccc32)c1=O)c1ccccc1 | x | 1.21
CCOC(=O)Cn1cnc2sc3c(c2c1=O)CCCC3 | -1.47 | x
OC1(C(F)(F)F)CC(c2nccs2)=NN1 (configuration not stated) | -1.28 | x
CSC(=CC(=O)c1cccs1)SC | -2.68 | x
Oc1ccc(-c2nc3cnccn3c2Nc2ccc(Cl)cc2)cc1 | 0.37 | 1.66
Clc1ccccc1-c1nn2c(-c3ccncc3)nnc2s1 | -1.92 | 0.25
COC(=O)c1cc(S(=O)(=O)Nc2ccc(F)c(F)c2)c[nH]1 | x | 1.57
CC(=O)c1ccc(N2C(=O)C3C4C=CC(C4=C(C)C)C3C2=O)cc1 (configuration not stated) | 0.6 | x
COCCNC(=O)c1c(NC(=O)c2csnn2)sc2c1CCCC2 | -1.37 | -0.65
Cc1ccc(CN2C(=O)C(=O)c3cc(Cl)ccc32)cc1 | 0.13 | 0.47
S=C1NCCCN1C1CCCCC1 | -1.76 | x
CCC(C)OC(=O)COc1ccc2c(=O)c(Oc3ccccc3Cl)coc2c1 (configuration not stated) | -1.85 | 3.08
CCc1nn2c(=O)cc(COc3cc(C)c(Cl)c(C)c3)nc2s1 | -2.08 | 2.86
CC(NC(=O)c1ccco1)c1nc(-c2ccc(C(C)(C)C)cc2)no1 (configuration not stated) | 2.01 | 1.7
c1ccc(-c2cn3ncsc3n2)cc1 | 0.37 | 1.31
CCOCCCN(Cc1ccco1)C(=O)c1sc2nc3n(c(=O)c2c1C)CCCC3 | x | 2.07
O=C(c1cccc(N2C(=O)C3C4C=CC(C4)C3C2=O)c1)N1CC=C(c2ccccc2)CC1 (configuration not stated) | 0.4 | x
CN1C(=O)NC(c2cccnc2)C(C(=O)c2cccs2)C1(O)C(F)(F)F (configuration not stated) | -2.45 | x
c1ccc(-c2nc(-c3ccc4c(c3)nnn4C3CCCC3)no2)cc1 | x | 0.93
CCCCN1C(=O)C(O)(CC(=O)c2ccc(C(C)C)cc2)c2ccccc21 (configuration not stated) | -0.27 | -0.21
CN1CCN(CCNC(=O)Nc2cn(C)c(=O)c3ccccc23)CC1 | x | -0.38
Cc1noc2ncnc(N3CCC(C(=O)NCCN(C)C)CC3)c12 | x | 2.02
O=C(NCCC1=CCCCC1)C(=O)NCc1n[nH]c(=O)c2ccccc12 | x | 1.66
Cc1ccc(N2C(=O)c3ccc(S(=O)(=O)c4ccc(C(=O)O)cc4)cc3C2=O)cc1C | 0.39 | x
CCC(C(=O)N1CCN(CC)CC1)n1sc2ccccc2c1=O (configuration not stated) | -2.31 | 1.64
Cc1ccc(NC(=O)CSc2nc(-c3ccc(F)cc3)nc3cc(=O)[nH]n23)cc1C | x | 2.08
N#CNC(N)=Nc1cc(Cl)ccc1Cl | -0.78 | x
COc1ccccc1-c1nc(SCc2cc(=O)n3oc(C)cc3n2)n[nH]1 | x | 0.32
O=C(Cc1ccc(NC2=NC3CS(=O)(=O)CC3S2)cc1)NC1CCCc2ccccc21 (configuration not stated) | -1.15 | x
O=C(Nc1ccncc1)c1cc([N+](=O)[O-])ccc1Sc1ccccn1 | -0.21 | x
CC/C=C\C/C=C\C/C=C\C/C=C\C/C=C\C/C=C\CCC(=O)O | x | 0.62&0.96
COC(=O)CCc1c(C)[nH]c(=S)[nH]c1=O | -1.76 | x
Cn1c(O)c(C2=Nc3ccccc3SC(c3ccc(Br)cc3)C2)c(=O)n(C)c1=O (configuration not stated) | -2.02 | 3.11
CCOc1ccc(N2C(=O)C3ON(c4ccccc4)C(c4ccccc4O)C3(C)C2=O)cc1 (configuration not stated) | 0.8 | -0.88
CC(C)NC(=O)c1c(O)nc2ccccn2c1=O | -2.33 | -0.7
O=C(Nc1ccc(Cl)cc1)C1=Cc2cc(Br)ccc2OC1 | x | 1.01
O=C1c2cccnc2C(=O)N1Cc1ccc(S(=O)(=O)NCc2ccccn2)cc1 | x | 0.99
Cn1c(=O)c2c(SCC(=O)NCC3CCCO3)nc(-c3cccs3)nc2n(C)c1=O (configuration not stated) | -0.93 | x
CCn1cc(S(=O)(=O)c2cccc(Cl)c2)c(=O)c2cc(F)c(N3CCCCC3)cc21 | x | 0.27
Cc1nc(-c2csc(S(=O)(=O)Nc3ccc(C)c(F)c3)c2)no1 | x | 0.11
COc1ccc(N2C(=O)C3CCCN3C2c2ccc(C)o2)cc1 (configuration not stated) | 1.25 | 0.41
COC(=O)c1sc2nc(-c3ccccc3)cc(-c3ccc(OC)cc3)c2c1N | -1.01 | 1.53
CC(C)CCNC(=O)NC1COc2ccccc2C1 (configuration not stated) | x | 0.44

Retrieved by compound from above (five):
SMILES | CDC25B-CDK2 inh | HIV TAR-Tat
O=C(Nc1ccc(Cl)cc1)C1=Cc2cc(Br)ccc2OC1 | x | 1.01
CC(C)CCNC(=O)NC1COc2ccccc2C1 (configuration not stated) | x | 0.44
Cn1c(=O)c2c(SCC(=O)NCC3CCCO3)nc(-c3cccs3)nc2n(C)c1=O (configuration not stated) | -0.93 | x
O=C1c2cccnc2C(=O)N1Cc1ccc(S(=O)(=O)NCc2ccccn2)cc1 | x | 0.99
Cn1c(O)c(C2=Nc3ccccc3SC(c3ccc(Br)cc3)C2)c(=O)n(C)c1=O (configuration not stated) | -2.02 | 3.11

More results follow.
SMILES | CDC25B-CDK2 inh | HIV TAR-Tat
COc1ccc(-c2cn3ccc(C)cc3n2)cc1F | -0.92 | 0.35
Cc1ccccc1CN1C(=O)C(O)(CC(=O)c2ccccc2O)c2ccccc21 (configuration not stated) | -0.94 | x
O=C(NC1=NCCS1)Nc1ccc2snnc2c1 | -2.53 | 1.12
Cc1ccc(C)c2[nH]c(=O)c(CCNC(=O)c3cccs3)cc12 | -1.1 | x
Cc1cc2n(n1)CCC(=O)N2CCCC(=O)N1CCN(C(=O)c2ccco2)CC1 | x | 0.98
Cn1c(=O)c2c(-c3ccccc3)n(C(CO)(CO)CO)cc2n(C)c1=O | -1.34 | -0.27
CSC(=CC(=O)c1sc(-c2cccs2)nc1C)SC | -0.06 | x
NC(=NC(=O)c1cccc(C(F)(F)F)c1)c1ccc(C(F)(F)F)cn1 | -2.02 | x
CC(C)N(CCO)S(=O)(=O)c1ccc(N)cc1 | -0.31 | x
O=C1c2ccccc2-c2onc3c(N4CCN(CCO)CC4)cc(N4CCOCC4)c1c23 | 0.75 | -2.02
Cc1ccc2oc(-c3ccc(C)c(N)c3)nc2c1 | -1.15 | 0.61
CCc1nc(-c2csc(S(=O)(=O)Nc3ccc(Br)c(C)c3)c2)no1 | x | 1.01
Nc1nc(N2CCCC2)nc(Nc2cccc(F)c2)c1[N+](=O)[O-] | x | 1.65
Cc1c(NC(=O)Nc2ccc(Br)cc2F)sc2nc3n(c(=O)c12)CCC(C)CC3 (configuration not stated) | 1.41 | 0.71
Cc1oc(-c2ccc(Cl)cc2)nc1CSc1nc2ncccc2o1 | x | 0.39
O=C(Nc1nc(-c2cc3ccccc3oc2=O)cs1)c1cccc(C(F)(F)F)c1 | -1.2 | x
COC(=O)C1=C(C(=O)c2ccc(C)cc2)C(c2cc(OC)ccc2OC)n2nnnc2N1 (configuration not stated) | -1.56 | 2.77
CCC(C)(C)NS(=O)(=O)c1ccc2c(c1)NC(=O)C(C)S2 (configuration not stated) | x | 1.8
COc1ccc(Oc2ccc(NS(=O)(=O)c3cccc4cccnc34)cn2)cc1 | -0.71 | x
CCOC(=O)c1cc(-c2ccc(S(=O)(=O)N(CC(C)C)CC(C)C)s2)on1 | x | 0.27
CCc1ccccc1N1CC23C=CC(O2)C(C(=O)OC)C3C1=O (configuration not stated) | -1.3 | 0.03
O=C(CSc1nnc(-c2ccncc2)n1-c1ccccc1)NCc1ccco1 | -0.05 | x
Cc1ccc(-c2nc3cnccn3c2Nc2ccc(Cl)cc2)s1 | -0.42 | 0.19
CC12N=NCC1C(=O)N(c1ccccc1F)C2=O (configuration not stated) | -0.83 | -0.28
Cc1ccc2c(c1)-c1c(c(C(=O)NC(C)C)nn1C)CS2 | x | 0.2
CC(C)C(=O)N(Cc1ccco1)S(=O)(=O)c1ccc2c(c1)n(C)c(=O)n2C | 0.08 | 1.31
COc1ccc(C(=O)Nc2nnc3n2CCS3)cc1 | x | 1.29
CC1Sc2ccc(S(=O)(=O)CCC(=O)NC3CCCc4ccccc43)cc2NC1=O (configuration not stated) | x | 3.94
CCCCC(=O)OCc1cc(=O)n2nc(C3CCCCC3)sc2n1 | x | -0.68
O=C(NCc1cccs1)c1cc2c(s1)CS(=O)(=O)C2 | -3.18 | 0.62
CC(C)c1ccc(-c2nc(N)c3c(=O)oc4ccccc4c3n2)cc1 | -4.03 | x
O=C(CSc1ccccn1)N1c2ccccc2CCc2ccccc21 | -1.04 | x
O=S(=O)(c1cc(Cl)sc1Cl)N1C=CC(C(F)(F)F)=NCC1 | -1.56 | x
COc1ccc(C2CC(c3ccc(-c4ccccc4)cc3)Nc3nnnn32)cc1 (configuration not stated) | x | 2.12
OCCNc1ncnc2c1c(-c1ccccc1)cn2-c1ccc(Cl)cc1 | -2.93 | x
COc1cc(OC)c(NC(=O)c2noc3c2CCc2sccc2-3)cc1Cl | x | 1.43
CCCSc1nnc2c(n1)OC(c1ccc(C(=O)O)cc1)Nc1ccccc1-2 (configuration not stated) | -0.63 | 0.42
CC(C)n1cnc2nc(COc3ccc(NC(=O)c4ccco4)cc3)cc(=O)n21 | -0.99 | -0.14
CC(CCNS(=O)(=O)c1ccc(-c2ccc(=O)[nH]n2)s1)N1CCOCC1 (configuration not stated) | x | 0.72
Cc1c(NC(=O)COc2cccc(OCCC(C)C)c2)c(=O)n(-c2ccccc2)n1C | 0.7 | 0.05
S=c1[nH]c(-c2ccc3c(c2)OCO3)cn1-c1ccc(Cl)cc1 | -2.01 | x
CC1CCN(CCCNC(=O)c2cnc(N3CCCC3)nc2)CC1 | x | 1.57
CCCCCOC(=O)C1=C(C)NC2=C(C(=O)CCC2)C1c1ccccc1OCCC (configuration not stated) | 0.48 | 1.32
Cc1ccccc1Cn1c([N+](=O)[O-])cnc1C | 1.11 | 1.79
O=C(CSCCS(=O)(=O)c1ccccc1)NNC(=O)Nc1ccccc1 | -1.47 | x
O=C(NCCc1cccs1)c1cccn1-c1nnc(N2CCCC2)s1 | x | -0.61
COC(=O)c1cc(NC(=O)c2ccc3c(c2)OCCO3)cc(C(=O)OC)c1 | -1.55 | x
COc1ccc(NC(=O)CSc2nc(-c3cccs3)cc(C(F)(F)F)n2)cc1 | -1.37 | -0.18

Quoted from the listing.
HIV TAR-Tat result of O=C(NCCc1cccs1)c1cccn1-c1nnc(N2CCCC2)s1 stands at -0.61
HIV TAR-Tat result of Cc1ccccc1Cn1c([N+](=O)[O-])cnc1C stands at 1.79
CDC25B-CDK2 inh result of Cc1c(NC(=O)COc2cccc(OCCC(C)C)c2)c(=O)n(-c2ccccc2)n1C stands at 0.7
HIV TAR-Tat result of CC(CCNS(=O)(=O)c1ccc(-c2ccc(=O)[nH]n2)s1)N1CCOCC1 (configuration not stated) stands at 0.72
HIV TAR-Tat result of CCCCCOC(=O)C1=C(C)NC2=C(C(=O)CCC2)C1c1ccccc1OCCC (configuration not stated) stands at 1.32

The results go on:
SMILES | CDC25B-CDK2 inh | HIV TAR-Tat
COc1ccc(-c2nnc3c4ccccc4c(C)nn23)cc1S(=O)(=O)NCC1CCCO1 (configuration not stated) | -0.05 | x
Cc1nc2sccn2c(=O)c1S(=O)(=O)NCCC(C)C | -1.11 | 0.38
CCCN1C(=O)C2(/C(=C(/O)c3ccc(Cl)cc3)C(=O)C(=O)N2CCCN(C)C)c2ccccc21 (configuration not stated) | -2.97 | -0.7
CCOCCCNC(=O)C1=C(C)C(=O)OC12CCN(C(C)=O)CC2 | x | 1.04
CC(=O)OC[C@H]1O[C@@H](n2cnc(N)nc2=O)[C@H](OC(C)=O)[C@@H]1OC(C)=O | x | -0.04
CCN(CC)CCNc1ncnc2c1sc1nc(CC(C)C)c3c(c12)CC(C)(C)OC3 | -1.96 | 0.21
O=C1C(c2ccccc2)C(c2ccco2)NC(c2ccco2)C1c1ccccc1 (configuration not stated) | 0.03 | 0.26
Cc1cc(C2CCCN2S(=O)(=O)c2cccc3nsnc23)no1 (configuration not stated) | x | 2.89
Brc1cccc(CNCc2cccn2-c2nnc(N3CCOCC3)s2)c1 | x | 0.18
CCc1ccc(CN2CCc3nc(N4CCN(c5ccccn5)CC4)ncc3C2)cc1 | x | -1.69
COCCNC(=O)CCc1nc2sc3c(c2c(=O)[nH]1)CCC(C(C)(C)C)C3 (configuration not stated) | x | 0.41
BrC=C=CCN(CC=C=CBr)Cc1ccccc1 | 4.3* | x
O=C(C1CC1)n1nccc1-c1csc(-c2ccccc2)n1 | -2.64 | x
COc1ccc(NC(=O)NC2CCN(c3ncccn3)CC2)cc1 | -1.18 | 0.12
O=C(C1CCN(c2nnc(N3CCCC3=O)s2)CC1)N1CCN(c2ccccn2)CC1 | -1.15 | -0.41

Source: PubChem (Center for Chemical Genomics, University of Michigan)

An unsorted share of the library. Share with any hit: about 0.94%.
